LANA-H2B inh – blockers of LANA interaction with H2A/H2B – biochemical, FP readout, HTS, primary screen; Protein LANA1 (Human herpesvirus 8 type P (isolate GK18)), Q9QR71; cell-free LANA-H2A/H2B peptide, fluorescence polarization; inhibition, % (no concentration beside the values); hit rate 0.6% among 320,000; in the data active means inhibition mostly above about 10%, no sharp cut-off; inactive means mostly below about 6.7%;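 further: stock transfer was 7.5 nL into about 10 µL; 0% = median of vehicle wells and 100% = median of positive control wells; one replicate is shown; the record names a cut of 25% in any replicate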
RanGTP-Impb inh – inhibitors of RanGTP-importin-beta interaction, primary screen, biochemical, FRET, CFP-Ran, YFP-importin-beta, homogeneous; Ran GTPase (GTP-bound) - importin-beta complex; inhibition, % (test concentration not listed); cell-free CFP-Ran/YFP-importin-beta FRET ratio; hit rate 1.1% among 300,000;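 active means most replicates above 15%; inconclusive means exactly half above 15%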;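 further: 0% = DMSO wells and 100% = Ran loaded with GDP instead of GTP; wells of about 40 µL received 100 nL stock; the first replicate is given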
ALR inh – inhibitors of human ALR sulfhydryl oxidase, primary screen, biochemical, H2O2 detection, HRP-luminol luminescence, single point | FAD-linked sulfhydryl oxidase ALR (Homo sapiens), P55789 | purified ALR, DTT oxidation | inhibition, % (no concentration beside the values) | hit rate 3.8% among 290,000 | AID 485317, 2010;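 active means mean and each replicate at 75% or more; inconclusive means only one of the two met; inactive means neither met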;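 further: stock transfer was 7.5 nL into about 7.5 µL; 0% = neutral wells and 100% = wells with inactivated enzyme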
Target sequence (P55789 whole entry, looked up): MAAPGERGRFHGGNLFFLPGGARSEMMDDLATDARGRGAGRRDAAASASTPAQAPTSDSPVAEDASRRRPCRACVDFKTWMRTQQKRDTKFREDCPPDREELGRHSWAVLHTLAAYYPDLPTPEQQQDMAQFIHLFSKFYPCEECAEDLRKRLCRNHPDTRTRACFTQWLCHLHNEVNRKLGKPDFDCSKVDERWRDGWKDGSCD
Calb FLC – C. albicans growth inhibition with fluconazole, primary screen, CaCi-2 strain, Alamar Blue fluorescence. C. albicans CaCi-2 (fluconazole-resistant clinical isolate) + fluconazole, 48 h. growth inhibition, % (concentration not given with the values). hit rate 0.57% among 300,000. AID 1979, 2009;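 active means most replicates above 75%; inconclusive means exactly half above 75%; inactive means most below 75%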;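 further: all wells also contain fluconazole at 8 µg/ml as a sub-toxic cotreatment; 0% = median of DMSO wells and 100% = median of geldanamycin control wells; wells of about 8 µL received 7.5 nL stock; the first replicate is given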
B2AR ag – beta2AR agonists driving receptor internalization, primary screen, cell-based, FAP fluorogen, flow cytometry | hit rate 0.43% among 340,000 | Beta-2 adrenergic receptor (Homo sapiens), P07550 | Am2.2-beta2AR cells; reference of the scale not given here | response, % (no concentration beside the values);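 active means response above a set limit, near 3 SD of response in nonfluorescent compounds, cut at about 42% in these data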;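 further: stock transfer was 100 nL into about 11 µL; a reference agonist was the positive control; negative values mostly stem from fluorescent compounds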
Target sequence (P07550 whole entry, looked up): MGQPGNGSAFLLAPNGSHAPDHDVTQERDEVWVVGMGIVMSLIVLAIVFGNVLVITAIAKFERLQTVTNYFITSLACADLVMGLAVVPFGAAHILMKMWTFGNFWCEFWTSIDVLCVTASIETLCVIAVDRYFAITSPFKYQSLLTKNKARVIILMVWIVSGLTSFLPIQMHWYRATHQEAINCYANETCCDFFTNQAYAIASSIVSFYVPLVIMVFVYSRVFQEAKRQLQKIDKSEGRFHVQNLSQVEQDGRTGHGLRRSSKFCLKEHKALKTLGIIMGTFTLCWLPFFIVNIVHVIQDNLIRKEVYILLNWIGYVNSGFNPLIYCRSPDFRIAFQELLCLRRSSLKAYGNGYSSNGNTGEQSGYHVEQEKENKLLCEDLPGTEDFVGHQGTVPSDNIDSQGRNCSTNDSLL
Vif A3G – inhibitors of Vif binding to APOBEC3G peptide, primary screen, biochemical, TR-FRET, GST-Vif 1-94, biotin-A3G peptide, dose response retest (AID 1117319). TR-FRET GST-Vif / biotin-A3G peptide binding; higher % means a stronger effect; test concentration not given here; strong numbers were not always called active. inhibition, %; hits with a dose series show IC50 in µM. hit rate 0.57% among 260,000;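 active means above the screen mean plus three standard deviations and confirmed in dose response; inconclusive means results disagree or hit not tested in dose response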;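 further: Vif residues 1-94 fused to GST binding biotinylated APOBEC3G peptide 110-148; 0% = full assay without inhibitor and 100% = GST in place of GST-Vif; retest series ran down from 100 µM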
HNF4A DNA FP – change in binding of human HNF4A to DNA, primary screen, biochemical, fluorescence polarization, FITC-DNA | 1 h | activity change, % at 10 µM | hit rate 0.3% among 360,000 | AID 1224865, 2016; in the data active means activity change above about 30%, passing the limit was not always enough;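 further: controls were the assay level and a saturating level of protein; the project sought stronger binding though the title names inhibitors; some compounds called inactive have numbers as strong as hits; positive values seem to mean higher polarization but the record does not say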
Target sequence (P41235 whole entry, looked up): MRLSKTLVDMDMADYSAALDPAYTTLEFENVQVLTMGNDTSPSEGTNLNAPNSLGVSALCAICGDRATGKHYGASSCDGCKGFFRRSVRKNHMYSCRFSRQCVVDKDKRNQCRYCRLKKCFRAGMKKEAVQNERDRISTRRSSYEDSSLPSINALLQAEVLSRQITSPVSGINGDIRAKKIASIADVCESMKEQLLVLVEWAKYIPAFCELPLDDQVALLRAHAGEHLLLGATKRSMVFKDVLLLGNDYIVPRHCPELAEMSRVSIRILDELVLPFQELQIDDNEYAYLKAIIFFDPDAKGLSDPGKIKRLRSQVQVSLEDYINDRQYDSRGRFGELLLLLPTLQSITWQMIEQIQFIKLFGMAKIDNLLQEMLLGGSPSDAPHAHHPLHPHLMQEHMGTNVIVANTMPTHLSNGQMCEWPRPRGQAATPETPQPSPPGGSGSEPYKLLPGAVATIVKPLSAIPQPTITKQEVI
Numbers without * were called inactive; ? = inconclusive; · = no result given.

SMILES	LANA-H2B inh	RanGTP-Impb inh	ALR inh	Calb FLC	B2AR ag	Vif A3G	HNF4A DNA FP
Nc1nonc1-n1nnc(C(=O)N/N=C/c2ccccc2F)c1-c1cccs1	0.3	-1.1	-5	-7	0	·	-0.8
Cc1cc(NC(=O)CSCC(=O)Nc2ccccc2Oc2ccccc2)no1	1.8	5.0	-6	5	-6	7%	-1.5
COc1cccc(-c2c(C#N)c(N)nc3c2c(=O)nc2sccn23)c1	-1.0	2.5	-8	17	·	?	·
Cn1c(=O)[nH]c(=O)c2c1nc(NC1CCCCC1)n2Cc1ccccc1	4.5	4.5	46	-5	6	5%	2.4
COc1ccccc1-c1nnc(SCC(=O)N2CCOCC2)o1	1.8	1.0	·	7	-1	-1%	2.8
Cc1ccc(/C=N/NC(=O)c2cccs2)cc1[N+](=O)[O-]	0.9	4.6	-2	-15	-22	2%	2.5
COc1ccc(OCC(=O)N(Cc2cccs2)C2CCS(=O)(=O)C2)cc1 (centres undefined)	2.7	-1.9	·	-5	-6	·	0.4
CC(C)OC(=O)c1nn2c(C(F)(F)F)cc(-c3ccc(Br)o3)nc2c1Br	-3.1	-0.6	3	-6	11	1%	-0.1
CCCCCSc1nnc(C)c(=O)[nH]1	-0.7	4.3	14	49	-12	-1%	-2.0
CC(C)(C)OC(=O)N1CCC[C@H]1C(=O)NCC1CCC(C(=O)O)CC1 (some centres undefined)	-0.1	-1.3	-14	-4	-7	?	2.9
Cc1sc2ncn(CC(=O)NCCCN3CC(C)CC(C)C3)c(=O)c2c1S(=O)(=O)N1CC(C)CC(C)C1 (centres undefined)	-0.3	1.7	9	-5	14	-2%	1.8
CCN(CC)CCNC(=S)Nc1ccc2nc(N3CCCC3)cc(C)c2c1	-4.0	-0.6	99*	-4	2	0%	1.8
Cc1ccc2nc(-c3ccc(NC(=O)CN(c4ccccc4C)S(C)(=O)=O)cc3)sc2c1	-4.6	7.1	-3	-1	22	8%	6.2
COCCCN=C1NN=C(c2cc(C)n(Cc3ccccc3Cl)c2C)CS1	0.1	-2.2	-9	1	-1	2%	1.8
CN1C(=O)C(O)(CC(=O)c2ccccn2)c2cc(Br)ccc21 (centres undefined)	5.1	1.9	-7	19	21	6%	2.3
CNC(=O)c1c(NC(=O)CS(=O)(=O)c2ccc(F)cc2)sc(C)c1C	·	-3.6	·	10	-5	-5%	-4.2
O=C(c1cccs1)N1CCN(Cc2ccc3c(c2)OCO3)CC1	3.1	3.8	-27	-27	-5	-2%	-0.7
O=C(Cc1ccc([N+](=O)[O-])cc1)Nc1cccc(C(=O)N2CCCCC2)c1	0.3	·	9	·	-3	·	2.9
C=CCN(CC=C)CCOc1ccccc1[N+](=O)[O-]	1.6	-0.3	-16	-32	-8	4%	-0.9
CCCOc1ccc(N2C(=O)CC(N(Cc3ccco3)C(=O)CC)C2=O)cc1 (centres undefined)	0.0	0.2	-36	-9	-6	10%	0.2
CCOC(=O)C1=C(C)N(c2nonc2NC(C)=O)C(N)=C(C#N)C1c1ccccc1F (centres undefined)	0.8	-0.2	16	-7	4	25%	2.5
COc1ccc(-c2ccc(-c3noc(-c4ccccc4C)n3)c(OC)n2)cc1	3.1	23*	-6	0	-2	-1%	11
CC(C)CC(/C(O)=C(\C#N)c1nc2ccccc2[nH]1)N1C(=O)c2ccccc2C1=O (centres undefined)	1.2	7.7	3	4	-14	?	-1.1
CCCC1OC2CC3C4CCC5=CC(=O)C=CC5(C)C4C(O)CC3(C)C2(C(=O)O)O1 (centres undefined)	-0.1	-2.0	-25	1	-6	?	-3.1
Cc1ccc2[nH]c3c(=O)[nH]ncc3c2c1	-0.8	8.3	-20	2	-10	-13%	1.3
O=C(CSc1ncnc2nc[nH]c12)Nc1ccc(Br)cc1Cl	-3.4	-0.9	-3	8	-10	1%	4.0
Cc1ccc(NC(=O)CN2C(=O)NC3(CCCCC3C)C2=O)cc1S(=O)(=O)N1CCCCC1 (centres undefined)	55*	0.1	12	-9	11	·	4.2
C/C(N)=C(/C#N)C(=O)COC(=O)C1CCC(C(C)(C)C)CC1 (centres undefined)	4.2	-1.2	3	5	-9	20%	-1.1
Cc1cc2c(c(=O)n1Cc1ccc3c(c1)OCO3)C(c1cccnc1)C(C#N)=C(N)O2 (centres undefined)	-0.6	9.5	3	-6	5	0%	2.5
Nc1cc(C(=O)OCC(=O)NCCC2=CCCCC2)ccc1Cl	-2.9	·	·	·	2	·	-1.6
NC(=O)CNC(=O)C1CCN(S(=O)(=O)c2ccc(-n3cnnn3)cc2)CC1	-4.9	4.6	1	34	7	·	-2.0
Cc1ccc(S(=O)(=O)Nc2ccc3[nH]ccc3c2)cc1	-3.5	-6.7	·	-13	-1	2%	-0.8
CCCCC(=NCCO)C1=C(O)C(C(=O)OC)C(C)(C)CC1=O (centres undefined)	-9.2	0.2	-1	2	-2	-7%	-0.5
CC(C)(C)NC(=O)NC(=O)COC(=O)C1CC(=O)N(Cc2ccccc2)C1 (centres undefined)	1.5	-1.5	-9	-1	11	-3%	-1.2
CCc1c(C)sc(NC(=O)CSc2nc3c(c(C(F)(F)F)n2)CCc2ccccc2-3)c1C#N	1.2	3.8	-4	2	-4	0%	4.3
C=CCNC(=O)CCC(=O)NNc1nc2ccccc2c2nc(-c3ccccc3)nn12	6.4	-3.5	2	12	3	17%	-5.9
CCOc1ccccc1N1CCN(C(=O)c2ccc3nc(N)sc3c2)CC1	-0.4	·	14	·	7	·	1.7
CN(C)C=NC(=O)/C(C#N)=C1\CCc2ccccc2N1	7.9	6.0	·	-1	-6	73%	-1.4
COc1ccccc1C(=O)Nc1nnc(S(=O)(=O)N(C)Cc2ccccc2)s1	-3.6	5.5	2	4	-10	1%	-2.3
O=C(Nc1cccs1)NC1CCCC1	3.5	1.6	99*	13	0	20%	0.7

A draw from above in order of count of non-hydrogen atoms, descending:
SMILES	LANA-H2B inh	RanGTP-Impb inh	ALR inh	Calb FLC	B2AR ag	Vif A3G	HNF4A DNA FP
Cc1ccc(NC(=O)CN2C(=O)NC3(CCCCC3C)C2=O)cc1S(=O)(=O)N1CCCCC1 (centres undefined)	55*	0.1	12	-9	11	·	4.2
Cc1cc2c(c(=O)n1Cc1ccc3c(c1)OCO3)C(c1cccnc1)C(C#N)=C(N)O2 (centres undefined)	-0.6	9.5	3	-6	5	0%	2.5
CCCC1OC2CC3C4CCC5=CC(=O)C=CC5(C)C4C(O)CC3(C)C2(C(=O)O)O1 (centres undefined)	-0.1	-2.0	-25	1	-6	?	-3.1
COc1ccc(-c2ccc(-c3noc(-c4ccccc4C)n3)c(OC)n2)cc1	3.1	23*	-6	0	-2	-1%	11
NC(=O)CNC(=O)C1CCN(S(=O)(=O)c2ccc(-n3cnnn3)cc2)CC1	-4.9	4.6	1	34	7	·	-2.0
CCCCC(=NCCO)C1=C(O)C(C(=O)OC)C(C)(C)CC1=O (centres undefined)	-9.2	0.2	-1	2	-2	-7%	-0.5
C/C(N)=C(/C#N)C(=O)COC(=O)C1CCC(C(C)(C)C)CC1 (centres undefined)	4.2	-1.2	3	5	-9	20%	-1.1
CN(C)C=NC(=O)/C(C#N)=C1\CCc2ccccc2N1	7.9	6.0	·	-1	-6	73%	-1.4
Cc1ccc2[nH]c3c(=O)[nH]ncc3c2c1	-0.8	8.3	-20	2	-10	-13%	1.3
O=C(Nc1cccs1)NC1CCCC1	3.5	1.6	99*	13	0	20%	0.7

Remaining list, next part.
SMILES	LANA-H2B inh	RanGTP-Impb inh	ALR inh	Calb FLC	B2AR ag	Vif A3G	HNF4A DNA FP
COC(=O)C1=C(C)C(c2ccc(OC)cc2)NC(=O)N1 (centres undefined)	-1.9	-2.1	-16	-15	0	11%	0.0
Cc1nc(SC2CC(=O)N(c3ccccc3)C2=O)n[nH]1 (centres undefined)	5.8	-2.0	2	-27	6	·	-2.9
CCOC(=O)N1CCN(C(=O)CSc2ncnc3ccccc23)CC1	2.6	1.4	·	4	2	?	-0.5
CCCCOc1ccccc1NC(=O)C=C(C)C	-1.2	?	1	?	1	-2%	1.1
CC(C)(C)[C@H]1COC(=O)CC/C=C\C[C@@H](CC(=O)N[C@H](CO)Cc2ccccc2)C(=O)N1	-0.7	·	-4	·	6	·	-0.5
COc1ccc(/C=N/NC(=O)c2ccncc2)c(C(=O)O)c1OC	9.4	3.4	-3	-2	17	-9%	-2.4
O=C(O)C1CCCN1C(=O)c1cncc(Br)c1 (centres undefined)	3.8	1.0	-2	12	-6	1%	-0.5
O=C(CN1CCN(c2ccc(C(F)(F)F)cn2)CC1)NCc1ccc2c(c1)OCO2	4.6	-2.2	-10	-1	-2	19%	-0.6
COc1ccc(NC(=O)c2nn(C34CC5CC(CC(C5)C3)C4)cc2[N+](=O)[O-])cc1	·	1.1	·	4	-5	·	0.9
Fc1ccc(CN2CCN(c3ncccn3)CC2)cc1	1.4	-3.9	-2	-16	9	2%	0.7
NC(=O)CSCc1c(Cl)cccc1Cl	2.7	?	-3	-9	4	0%	-3.7
COc1cccc(CN2CC(C(=O)NCc3cccc(Cl)c3)CCC2=O)c1 (centres undefined)	·	?	·	9	-6	·	0.5
Cc1ccc(-n2nc3c(=O)n(CCCC(=O)NCc4ccc(F)cc4)nc(C)c3c2C)cc1	-0.1	-0.4	-2	2	-2	·	2.5
COC(=O)c1cn[nH]c1NC(=S)Nc1ccccc1C	·	-5.8	·	7	2	2%	0.6
CCOC(=O)C1=C(NC(=S)NC(=O)c2ccccc2)c2ccccc2CC1(C)CC (centres undefined)	-1.5	3.9	-4	-1	22	·	-1.3
Cc1cccc(NC(=O)CN(C)S(=O)(=O)c2cnc[nH]2)c1	3.7	2.9	-13	-2	9	20%	-2.1
CCn1cc(C(=O)NCC(OC)OC)c(=O)c2cc(S(=O)(=O)N(C)C3CCCCC3)ccc21	0.3	0.9	-3	0	8	·	1.8
O=C(CSc1nc2ncc(Br)cc2[nH]1)Nc1ccccc1-c1ccccc1	12	5.5	-16	15	4	-5%	1.1
Cc1cc2c(cc(C(=O)O)n2C)s1	-2.5	?	79*	6	-3	?	1.1
Cc1ccccc1C(=O)N1CCN(c2ccc(NC(=S)NC(=O)c3ccco3)cc2)CC1	4.0	2.2	1	·	7	·	2.4
CC(C)c1csc(CN2CCC(CO)(Cc3ccccc3)CC2)n1	3.9	3.0	-12	-7	-4	·	-4.7
c1ccc(CCc2nc(-c3cccnc3)no2)cc1	4.5	1.6	-3	-2	-1	-6%	1.8
O=C(CN1C(=O)c2ccccc2C1=O)OCC(=O)c1ccccc1	-1.9	6.5	-2	1	12	-1%	-2.8
COc1ccc(C(=O)COc2ccccc2C#N)cc1	-1.5	?	-2	-2	1	0%	-1.4
Nc1nnc(SCC(=O)N2CCc3ccccc3C2)s1	-7.1	0.8	3	-3	5	-2%	-3.3
Cc1ccc(C(=O)Nc2ccc3cn[nH]c3c2)cc1S(=O)(=O)N1CCCCC1	3.8	-1.4	-13	-6	8	25%	1.8
COCCCn1c(N)c(-c2nc3ccccc3n2C)c2nc3ccccc3nc21	-4.2	-32	71	-35	10	3%	18
O=C1NC(=O)C2C3c4ccccc4C(c4ccccc43)C12 (centres undefined)	0.4	-4.5	-1	-3	-3	-3%	2.7
c1coc(CSSCc2ccco2)c1	5.7	·	98*	·	-1	·	-26
Cc1ccc(NC(=O)c2ccn(C)n2)c(Br)c1	4.3	?	-10	-2	-9	-9%	-1.3

Screening data from PubChem.
